KSHV LANA nucl: inhibitors of KSHV LANA-nucleosome binding, primary screen, biochemical, fluorescence polarization, FITC-LANA1-23, chicken nucleosomes. FITC-LANA1-23 / chicken nucleosome fluorescence polarization; hits give low values. z-score (test concentration not listed). 51,000 tested, 0.3% active;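 active means both repeat wells score below -2 in polarization z-score versus plate sample wells, excluding overly bright wells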;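 further: 100 nL library stock added to about 30 µL; numbers are from one replicate; some results filed as inactive read as strong as hits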
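Assay system: purified chicken nucleosomes with FITC-labelled LANA N-terminal peptide (1-23) / Probe or stimulus: 50 nM FITC-LANA1-23 probe / Compound dosing: pin-transferred compound, 100 nL / Times: compound with peptide–nucleosome mix 10–45 min at room temperature / Technique: fluorescence polarization, 480 nm excitation, 535 nm parallel and perpendicular emission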
Ab BasE inh: BasE siderophore enzyme inhibitors, primary screen, biochemical, Acinetobacter baumannii ATCC 17978, fluorescence polarization; purified BasE, fluorescence polarization binding displacement; inhibition, % (no concentration beside the values); 84,000 tested, 0.1% active;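 active means both replicates above 25% with normal brightness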;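 further: 0% = negative plate control signal and 100% = positive plate control signal; stock transfer was 100 nL into about 30 µL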
Starred values were filed as active, the others as inactive; · = no result given; & = joins results of further samples.

Every second line gives: Ab BasE inh | KSHV LANA nucl
O=S(=O)(Cc1ccc(Cl)cc1)c1ccc(C(F)(F)F)cn1
  0.7 | 0.085
COc1cc(CNc2nn[nH]n2)ccc1OCC(N)=O
  2.4 | -1.54
Cc1onc(-c2c(Cl)cccc2Cl)c1NC(=O)NC(C)C
  1.6 | 1.83
O=C(O)/C=C/c1ccc2noc(-c3ccccc3)c2c1
  -1.1 | ·
O=C(CCN1CCN(c2ccccc2)CC1)N/N=C1/CCCc2ccccc21
  0.9 | ·
NC(=S)Nc1ccccc1OC(F)(F)F
  1.5 | ·
CN(C)S(=O)(=O)c1ccc2nnn(OCC(=O)NC34CC5CC(CC(C5)C3)C4)c2c1
  0.1 | ·
Cc1ccc(/C=C2/SC(=O)NC2=S)o1
  19.6 | ·
CCS(=O)(=O)NCCc1csc2nc(-c3ccccc3)nn12
  -1.1 | -1.19
COc1ccc2c(OC)c3ccoc3nc2c1OC
  -0.7 | -0.579
NS(=O)(=O)C1CCC(F)CC1 (configuration not stated)
  4.1 | ·
CC(=O)N1c2ccc(S(=O)(=O)N3CCCN(Cc4ccc(F)cc4)C3)cc2CC1C (configuration not stated)
  -1.8 | -1.17
COc1cccc2c(Cl)c(CCCl)c(C)nc12
  · | 0.219
O=C(C1CCCN(CC2CC3C=CC2C3)C1)N1CCC(Cc2ccccc2)CC1 (configuration not stated)
  0.0 | ·
CCOC(=O)N1CCC(NC(=O)Nc2ccc(F)cc2)CC1
  -0.4 | ·
COC(=O)c1ccccc1NC(=O)c1ccccc1Br
  1.1 | ·
O=C(NCc1cccnc1)C1CCC(c2ccc(Cl)cc2)CC1 (configuration not stated)
  -0.8 | ·
CN1C(=O)C2(NC(=O)c3ccccc3N2C)c2ccccc21 (configuration not stated)
  0.3 | ·
O=S1(=O)CCC(NC(=S)N2CCCCC2)C1 (configuration not stated)
  1.1 | ·
Nc1ccc(Cl)cc1C(O)c1ccccc1 (configuration not stated)
  -0.4 | -1.48
CC(C)CC(C(=O)O)N1C(=O)/C(=C\c2cccn2C)SC1=S (configuration not stated)
  -41.7 | 6.5
CN(C(=O)COC(=O)c1cc(=O)[nH]c(=O)[nH]1)C1CCCCC1
  3.1 | ·
CC1(C)Cc2ccccc2C(N/N=C/c2ccncc2)=N1
  3.2 | -0.441
COc1cc(OC)cc(-c2nc(N)c3c(C)c(-c4ccc(OC)c(OC)c4)sc3n2)c1
  3.8 | ·
Cc1cc(C(=O)OCc2nc3ccccc3c(=O)n2CC#N)c(C)n1-c1ccc(F)cc1
  -1.0 | ·
O=C1c2ccccc2-c2c1c1ccccc1c(=O)n2Cc1ccc2c(c1)OCO2
  2.6 | 0.0515
CCNS(=O)(=O)c1ccc(SC)cc1
  2.6 | -1.16
OCC1CCCC1O (configuration not stated)
  0.8 | 0.789
COc1ccc(CN(Cc2ccc(OC)cc2)S(=O)(=O)c2c(C)noc2C)cc1
  0.8 | -0.269
CCN(CC)S(=O)(=O)N1CCC(C(=O)NCCc2ccccc2)CC1
  2.6 | -0.101
Cc1cc(C)c2c(N)c(C(=O)C(C)(C)C)sc2n1
  1.3 | -0.458
CCC1CCc2sc(C(=O)O)cc2C1 (configuration not stated)
  -0.5 | ·
C=CCn1c(SCN2C(=O)c3ccccc3C2=O)nnc1C1CCCCC1
  -0.5 | ·
COc1ccc(/C=C2/SC(=O)N(CC(=O)NCCO)C2=O)cc1OC
  1.9 | ·
CCCc1cc2c(=O)c(-c3ccc4c(c3)OCO4)c(CCC)oc2cc1O
  2.6 | -0.414
CC(C)=N/N=C1/NC(=O)C(CC(=O)Nc2ccc(C(=O)O)cc2)S1 (configuration not stated)
  1.0 | -1.16
CC(=O)N(/N=c1\sc2ccccc2n1C(C)=O)C(C)=O
  -0.8 | ·
CCn1c2ccccc2c2cc(NC(=O)c3cccs3)ccc21
  0.3 | ·
COc1ccc(C(=O)N2CCc3cc(OC)c(OC)cc3C2c2ccccc2)cc1 (configuration not stated)
  1.3 | ·
O=C(NCCN1CCN(Cc2ccccc2)CC1)Nc1ccccc1
  1.1 | ·
Cc1ccc(-c2nnc(SCC(=O)OC(C)C)o2)cc1
  1.1 | 0.0045
COc1cccc(OC)c1C(=O)N1CCN(C(=O)c2ccccc2)CC1
  2.5 | -1.35
Cn1ccnc1C(=O)c1ccc(F)cc1
  -0.7 | ·
CCNC(=O)C1CCCN(C2=NS(=O)(=O)c3ccccc32)C1 (configuration not stated)
  -0.3 | ·
Cc1ccc2occ(CC(=O)Nc3ccc(C)c(Cl)c3)c2c1
  1.6 | -0.519
Cn1cnnc1SCC(=O)NC1CCCC1
  2.2 | -0.414
O=C(CSc1ncccn1)NC(=O)NC1CCCCC1
  -1.1 | ·
COc1ccc(C(=O)Nc2ccc(-c3cn4ccccc4n3)cc2)cc1
  1.4 | ·
CCNc1nc(NCC)n2c(SCC(=O)N3CCc4ccccc4C3)nnc2n1
  -1.8 | ·
C=CCn1c(=C(C#N)C#N)s/c(=C\c2ccc(Br)cc2)c1=O
  16.9 | ·
Cc1ccc(C)c(SCC(=O)Nc2ccc(-n3cnnn3)cc2)c1
  4.4 | ·
CCC1(C)NC(=O)N(NC(=O)c2ccc(CSc3ncn[nH]3)cc2)C1=O (configuration not stated)
  0.1 | ·
O=C1CCCN1C(=O)CSc1nc2ccccc2n1CCc1ccccc1
  -3.9 | ·
CCCNC(=O)c1cc(Cl)c(NC(C)=O)cc1OC
  2.0 | -0.531
CCCOC(=O)c1ccc(NC(=O)CN(C)C)cc1
  -0.4 | ·
CC(C)(C)OC(=O)NN1C(=O)c2ccccc2C1=O
  -1.1 | 0.96
CCCN=C1NN=C(c2ccc(OCC)cc2)CS1
  -1.2 | ·
N#CC(C(=O)NCc1ccccc1)c1nc2ccccc2nc1N1CCCC1 (configuration not stated)
  12.6 | ·
Cc1ccccc1NC(=O)Cc1nc(-c2cc(C)n(Cc3ccco3)c2C)cs1
  -3.7 | ·
Cc1nnsc1C(=O)N1CCC(O)(c2ccc(Cl)cc2)CC1
  · | 0.303

Next part.
Every second line gives: Ab BasE inh | KSHV LANA nucl
O=C(Nc1ccc2c(c1)oc1ccccc12)C(F)(F)F
  -0.7 | 0.774
O=C(O)C1CCCCC1C(=O)Nc1cccc(C(=O)N2CCCCC2)c1 (configuration not stated)
  -2.0 | -1.02
C/C(=N\OC(=O)c1ccccc1)c1csc(-c2snnc2C)n1
  2.0 | 0.438
Cc1ccc(C(=O)Nc2c[nH]c(=O)[nH]c2=O)cc1
  1.6 | -1.15
COc1ccc(NC2=Nc3ccccc3CCC2)cc1
  1.6 | ·
Cc1ccccc1Nc1c(-c2ccc(O)cc2)nc2cnccn12
  2.8 | 0.0325
COc1ccc(CC(=O)NCc2nnc(SCCOc3ccccc3)n2C)cc1
  0.3 | -0.513
CCCc1cc(=O)[nH]c(SCC(=O)N2CCCCCC2)n1
  -0.7 | ·
COc1ccccc1C(=O)Nc1ccccc1C(=O)N1CCCCC1
  3.0 | -0.019
C[C@]12CC[C@@H]3c4ccc(OS(=O)(=O)O)cc4CC[C@H]3[C@@H]1CCC2=O
  -0.4 | -0.602&-0.757
Cc1[nH]c(C)c(S(=O)(=O)N2CCCCC2)c1C(=O)N1CCCCC1
  -0.1 | 0.375
O=C(O)CNC(=O)COc1ccccc1
  2.2 | ·
CCOc1cc(C#N)cc(I)c1OCC(=O)OC
  -0.4 | 0.659
O=C(Cc1n[nH]c(=O)c2ccccc12)Nc1cccnc1
  2.7 | ·
CC(C)Cc1ccc(S(=O)(=O)Nc2noc3ccccc23)cc1
  2.2 | 0.0965
O=C(NC1CCN(Cc2ccccc2)CC1)c1cccc(N2CCCS2(=O)=O)c1
  -2.4 | ·
CCc1nnc(NC(=O)c2ccc(S(=O)(=O)N(C)C)cc2)o1
  -0.8 | -0.0095
C=CCNCc1cccn1-c1ccccc1
  0.8 | 0.367
O=C(CSCc1cnn(-c2ccccc2)c1-n1cccc1)NCCN1CCCC1
  -3.3 | 0.212
O=C(/C=C/c1cn(-c2ccccc2)nc1-c1cccnc1)NCCCn1ccnc1
  -3.8 | ·
CCSc1nc(C(F)(F)F)nc2ccccc12
  2.9 | ·
COCCNC(=O)C1CCN(C(=O)c2sccc2-n2cccc2)CC1
  -1.1 | -0.56
O=C(Nc1cccnc1)c1cc2ccccc2oc1=O
  5.5 | ·
CC1CCCCN1C(=O)CSc1nnc2c3ccccc3n(CC(=O)O)c2n1 (configuration not stated)
  -0.8 | -0.596
Cc1nc(C)c(-c2ccnc(C34CC5CC(CC(C5)C3)C4)n2)o1
  0.9 | ·
Cc1onc(-c2ccccc2)c1-c1csc(-c2ccc(-c3csnn3)cc2)n1
  -2.9 | 0.578
Cc1[nH]nc2nc3c(c(-c4cc(C)n(C5CC5)c4C)c12)C(=O)CC(C)(C)C3
  -1.6 | ·
COCCC1C(=O)c2c(n(Cc3ccccc3)c3nc4ccccc4nc23)N=C1C (configuration not stated)
  1.6 | ·
CCOC(=O)c1c(C)nsc1NC(=O)C1CCC1
  2.0 | -1.04
Cc1ccc2oc(=O)c3cnn(CC(=O)NC4CCC(C)CC4)c3c2c1 (configuration not stated)
  -1.0 | 0.484

4 records picked at random from those above, as already listed:
Every second line gives: Ab BasE inh | KSHV LANA nucl
Cc1[nH]nc2nc3c(c(-c4cc(C)n(C5CC5)c4C)c12)C(=O)CC(C)(C)C3
  -1.6 | ·
O=C(CSCc1cnn(-c2ccccc2)c1-n1cccc1)NCCN1CCCC1
  -3.3 | 0.212
Cc1onc(-c2ccccc2)c1-c1csc(-c2ccc(-c3csnn3)cc2)n1
  -2.9 | 0.578
O=C(Nc1cccnc1)c1cc2ccccc2oc1=O
  5.5 | ·

(listing goes on)
Every second line gives: Ab BasE inh | KSHV LANA nucl
O=C(Nc1ccccc1C(=O)NCc1ccco1)c1ccc(Cl)cc1
  -0.1 | -0.864
CC(=O)N1CCN(C(=O)C2CCN(S(=O)(=O)c3ccccc3C(F)(F)F)CC2)CC1
  1.5 | ·
COc1cn(-c2ccccc2)nc1C(=O)OCc1ccc(C#N)cc1
  -0.7 | ·
C=C1C[C@H]2[C@@H]3C=C(C)C4=CC(=O)CC[C@]4(C)[C@H]3CC[C@]2(C)[C@@]1(OC(C)=O)C(C)=O
  · | -0.157
CCSc1nnc(NC(=O)COc2ccccc2)s1
  5.9 | ·
Cc1ccccc1-n1c(SC(C)C(=O)NC(N)=O)nnc1-c1ccc(Cl)cc1 (configuration not stated)
  1.4 | ·
Cc1nn(-c2ccccc2)c(C)c1C(=O)N(Cc1ccco1)Cc1cccs1
  -0.2 | ·
COCC(=O)Nc1cccc2ccccc12
  -1.3 | 0.244
O=S(=O)(c1ccc(NC(=S)Nc2ccc3c(c2)OCO3)cc1)N1CCCCC1
  1.7 | ·
Cc1ccc(-n2c(N)c(C(=O)NCC3CCCO3)c3nc4ccccc4nc32)cc1 (configuration not stated)
  -0.2 | ·
COc1ccccc1CNC(=O)C1CCCN1S(=O)(=O)c1ccc2c(c1)C(C)(C)C(=O)N2C (configuration not stated)
  1.1 | -0.775
CC(=O)NCc1ccc(C(=O)COC(=O)c2ccc(S(=O)(=O)N3CCCCCC3)cc2)o1
  1.7 | ·
O=C(OCc1nnc(-c2ccccc2)o1)c1ccccc1NS(=O)(=O)c1ccc2c(c1)OCCO2
  0.5 | ·
Cc1ccc(C(=O)OCC(=O)Nc2ccc(N(C)C)cc2)c(C)c1
  2.7 | ·
O=C1c2cccnc2C(=O)N1CCc1ccc(S(=O)(=O)NCc2ccccn2)cc1
  -0.7 | 0.251

Compound profiles (already shown). Order of values: Ab BasE inh	KSHV LANA nucl
`CCSc1nnc(NC(=O)COc2ccccc2)s1` reads 5.9	·
`COCC(=O)Nc1cccc2ccccc12` reads -1.3	0.244
`O=C1c2cccnc2C(=O)N1CCc1ccc(S(=O)(=O)NCc2ccccn2)cc1` reads -0.7	0.251

Continuation:
Every second line gives: Ab BasE inh | KSHV LANA nucl
COc1ccc(C(=O)NCCc2ccccn2)cc1S(=O)(=O)NC1CCCC1
  2.1 | ·
CC(NC(=O)COc1cccc(-n2cnnn2)c1)c1ccc2c(c1)OCO2 (configuration not stated)
  -2.5 | ·
CCCC(=O)N1CCCC(c2nc(-c3ccc(C(C)C)cc3)no2)C1 (configuration not stated)
  -3.2 | -0.44
C=CCn1c(Cc2csc(N)n2)nnc1SCC(=O)Nc1ccc(S(N)(=O)=O)cc1
  0.2 | -0.304
O=C(Nc1ccc(OCC(=O)N2CCCC2)cc1)c1ccco1
  1.1 | ·
COc1ccc(-c2cc(=O)oc3c4c(ccc23)OCN(Cc2ccco2)C4)cc1
  -6.2 | 2.7
Cc1cc(C(=O)COC(=O)CN=C2NS(=O)(=O)c3ccccc32)c(C)n1C
  0.3 | ·
CCC(C(=O)N1CCN(c2ccccc2)CC1)n1sc2ccccc2c1=O (configuration not stated)
  1.7 | -1.13
CCCOc1ccc(C(F)(F)F)cc1NC(=O)c1cccnc1SCc1c(C)noc1C
  -0.8 | ·
O=C(CCCN1CCOCC1)c1ccc(F)cc1
  · | -1.31
Cc1ccc(NC(=O)Nc2ccc3c(c2)oc(=O)n3C)cc1
  0.6 | 0.577
CCCCC[C@H](O)/C=C/[C@@H]1[C@@H](C/C=C\CCCC(=O)O)[C@@H](O)C[C@H]1O (tested in a mixture with another compound)
  -0.6 | 0.191
C=CCn1c(-c2cccnc2)nn(C(=O)c2cc(OC)c(OC)c(OC)c2)c1=S
  0.7 | ·
Cc1noc(C)c1CC(=O)N1CC(C(N)=O)Oc2ccccc21 (configuration not stated)
  1.1 | ·

The list is partial (hit frequency here may not be typical).
